CSC inhib = cancer stem cell inhibition; cancer stem cell-like cells viability, luminescence; AID 2717; 1.1% of 300,000 active; inhibition, % at 7.5 µM;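 active means mean at 75% or more and at least half the replicates too; inconclusive means mean and replicates disagree; tested in HMLE shEcad cells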;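 further: 0% = median of negative and 100% = median of positive control wells; the first replicate is given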
MT1-MMP act inh = MT1-MMP (human) activation inhibition; GFP/RFP ratio change, % at 20 µM; 0.061% of 360,000 active; HT1080 RFP-PRO-GFP cells, GFP/RFP ratio fluorescence, overnight; percent of plate control window, DMSO zero; P50281; AID 651647;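 active means GFP/RFP ratio change of at least 30% with cell ATP level not reduced by more than half and red fluorescence within 50% of control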; further: strong numbers were not always called active
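system = RFP-PRO-GFP reporter HT1080 cells | dosing = 20 µM single dose, 1% DMSO | timing = overnight cell settling, then overnight compound exposure, 37 °C, 5% CO2 | read-out basis = GFP/RFP fluorescence ratio | controls = DMSO and RFP-L50D-GFP cell wells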
eIF4H inh = inhibitors of RNA binding by human eIF4H. Q15056. eIF4H fluorescence polarization binding assay. inhibition, % at 35 µM. 0.94% of 290,000 active. AID 2012;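 active means 50% or more with normal probe brightness, or confirmed in later tests; inconclusive means above 50% with abnormal brightness, or retests that disagree; inactive means below 50% or failed in later tests; about a fifth of its hits are not listed in these tables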;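 further: calls also rest on retests at 20 µM and on dose response follow-up; 0% = protein and probe with vehicle and 100% = probe without protein; strong numbers were not always called active; many hits fall short of the cut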
Yeast UUG start = modulators of start codon recognition fidelity in yeast; S. cerevisiae UUG-firefly luciferase reporter, luminescence/redox ratio; activity score, % at 18.7 µM; 0.13% of 350,000 active;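 active means replicate mean at a twofold rise or more, about +100% in these data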;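 further: firefly luciferase made from a UUG start codon reports start codon fidelity; reporter light over untreated wells divided by growth signal over untreated wells; some hits fall short of that in this replicate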
Rce1 inh = blocks yeast Ras-converting enzyme | yeast membranes, quenched prenylated peptide cleavage fluorescence | calls only | AID 2563 | 0.27% of 290,000 active | Q03530;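 active means fall in fluorescence gain of 50% or more versus controls, with final raw signal at or below 3038400; inconclusive means same 50% fall but final raw signal above 3038400; inactive means fall in fluorescence gain under 50%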;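 further: plate controls were neutral control wells for no effect and wells lacking membranes for full effect; tested at 10 µM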
Target sequence (Q03530 whole entry, looked up): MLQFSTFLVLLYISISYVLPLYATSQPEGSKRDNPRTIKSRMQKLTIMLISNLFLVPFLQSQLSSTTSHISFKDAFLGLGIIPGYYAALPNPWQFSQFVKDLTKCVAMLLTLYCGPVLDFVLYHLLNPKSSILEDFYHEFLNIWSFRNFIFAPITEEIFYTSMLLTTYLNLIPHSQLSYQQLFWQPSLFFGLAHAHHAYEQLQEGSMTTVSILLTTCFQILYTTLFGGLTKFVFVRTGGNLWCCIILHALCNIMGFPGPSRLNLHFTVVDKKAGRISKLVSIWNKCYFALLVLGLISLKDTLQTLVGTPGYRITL
PABP polyA inh = blocks human PABP binding to poly(A) RNA; inhibition, % at 35 µM; fluorescence polarization; AID 2014; P11940; 1% of 290,000 active;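 active means 50% or more with normal probe brightness, or confirmed in later tests; inconclusive means above 50% with abnormal brightness, or retests that disagree; inactive means below 50% or failed in later tests; about a fifth of its hits are not listed in these tables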;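 further: calls also rest on retests at 20 µM and on dose response follow-up; controls were probe without protein and protein plus probe with vehicle; some compounds called inactive have numbers as strong as hits; many hits fall short of the cut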
Env fusion inh = HIV envelope-mediated fusion inhibition; 1.1% of 360,000 active; inhibition, % at 12.3 µM; HeLa-JRFL Env/CEM21 cell fusion, luciferase;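 active means mean replicate inhibition score of at least 50 and every replicate individually at or above 50; inconclusive means only one of the two criteria met; inactive means mean below 50 and not all replicates reaching 50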;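 further: 0% = plate neutral controls and 100% = maraviroc near 300 nM; one replicate is shown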
eIF4H inh retest = second read-out of eIF4H inh, no call of its own (marks repeat the call); inhibition, %; compound at 20 µM; confirmation average;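 mean of two retest wells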
PABP polyA inh retest = further read-out of PABP polyA inh, marked with its call; inhibition, %; compound at 20 µM; confirmation repeats;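 mean of two retest wells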
MT1-MMP act inh RFP = further read-out of MT1-MMP act inh, marked with its call; RFP signal change, %; measured here: RFP expression control read;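 0 = vehicle wells; hits needed this value within 50% of zero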
* hit, by the source's call; i = inactive; ? = inconclusive; · = no result given; + = active, no number; & = joins results of further samples.

SMILES	CSC inhib	MT1-MMP act inh	MT1-MMP act inh RFP	eIF4H inh	Yeast UUG start	Rce1 inh	PABP polyA inh	Env fusion inh	others
Cc1ccc(N2CC(O)=C(c3nc4ccccc4c(=O)[nH]3)C2=N)cc1C	-0.5	2.4	1.1	-0.2	·	i	-4.8	13.8
CN(C)S(=O)(=O)c1cccc(COc2ccccc2C(=O)Nc2ccccc2)c1	-6.9	3.1	-8.1	-2.0	-11.2	i	1.0	14.7
CCN(CC(=O)Nc1ccc2c(c1)OCCO2)C(=O)c1cc(=O)[nH]c2ccccc12	-0.4	0.7	2.7	·	·	i	·	-2.3
COCCNC(=S)N(CCc1c(C)[nH]c2ccc(F)cc12)Cc1ccco1	16.9	-3.1	-9.8	8.2	·	i	0.0	8.6
Cc1ccc(NS(=O)(=O)c2c(C)[nH]c(=O)[nH]c2=O)cc1F	-5.8	4.2	6.6	-8.3	-6.6	i	-8.9	9.8
Nc1nnnn1/N=C/c1ccccc1	-11.7	-3.8	-4.5	4.6	-1.2	i	-1.4	-3.5
Cc1cc(C)nc(N/N=C/c2ccncc2)n1	8.8	2.8	3.7	-8.8	-25.1	i	2.0	14.9
O=C(NC(=S)NNC(=O)c1cccs1)c1ccc(Br)o1	7.1	2.0	3.0	3.3	·	i	8.7	·
COc1ccc(NC(=O)CN2CCCCC2)cc1	-5.8	1.1	0.8	4.9	1.3	i	-0.5	·
Cc1nonc1NC(=O)OCCN1CCOC1=O	-3.5	0.5	0.2	-11.1	-9.0	i	3.3	·
CCCNC(=O)C1(C)CCN(C(=O)c2cc(F)cc(F)c2)C1 (centres undefined)	·	3.4	0.4	·	-5.7	·	·	-56.2
CCOC(=O)C1(CCOC)CCN(C(=O)c2sccc2C)CC1	-16.3	-0.3	-0.9	7.7	-10.2	+	-1.8	10.3
O=C1CC(N2CCC(c3nc4ccccc4o3)CC2)C(=O)N1c1ccc(F)cc1 (centres undefined)	-6.9	-3.6	0.7	4.8	·	i	-9.0	11.8
CC1CCCCN1CCNC(=O)Cn1nc(-c2ccccc2)ccc1=O (centres undefined)	5.5	-0.4	2.7	-0.7	-3.9	i	2.9	·
COc1ccc(CC(=O)Nc2ccc(S(=O)(=O)N3CCCC3)cc2)cc1OC	-10.6	5.5	-7.9	·	-8.9	·	·	-7.1

6 records drawn at random from the list so far, as already listed:
SMILES	CSC inhib	MT1-MMP act inh	MT1-MMP act inh RFP	eIF4H inh	Yeast UUG start	Rce1 inh	PABP polyA inh	Env fusion inh	others
CN(C)S(=O)(=O)c1cccc(COc2ccccc2C(=O)Nc2ccccc2)c1	-6.9	3.1	-8.1	-2.0	-11.2	i	1.0	14.7
Cc1ccc(N2CC(O)=C(c3nc4ccccc4c(=O)[nH]3)C2=N)cc1C	-0.5	2.4	1.1	-0.2	·	i	-4.8	13.8
Cc1cc(C)nc(N/N=C/c2ccncc2)n1	8.8	2.8	3.7	-8.8	-25.1	i	2.0	14.9
CCN(CC(=O)Nc1ccc2c(c1)OCCO2)C(=O)c1cc(=O)[nH]c2ccccc12	-0.4	0.7	2.7	·	·	i	·	-2.3
COc1ccc(CC(=O)Nc2ccc(S(=O)(=O)N3CCCC3)cc2)cc1OC	-10.6	5.5	-7.9	·	-8.9	·	·	-7.1
Cc1ccc(NS(=O)(=O)c2c(C)[nH]c(=O)[nH]c2=O)cc1F	-5.8	4.2	6.6	-8.3	-6.6	i	-8.9	9.8

Going on with the list:
SMILES	CSC inhib	MT1-MMP act inh	MT1-MMP act inh RFP	eIF4H inh	Yeast UUG start	Rce1 inh	PABP polyA inh	Env fusion inh	others
CC1=C(C(=O)OCCNC(=O)c2ccccc2O)C(c2ccccc2[N+](=O)[O-])C(C(=O)OCC2CCCO2)=C(C)N1 (centres undefined)	-18.2	-20.2	-30.0	-6.8	·	i	2.4	-13.6
CCOC(=O)C1CCN(C(=O)CCC(=O)NCCc2ccc(Cl)cc2)CC1	-20.1	4.4	5.7	-5.3	1.3	i	-0.9	-1.2
CC(=O)OC[C@@H]1CN(Cc2ccccc2)C[C@H](n2cnc3c(N4CCCC4)ncnc32)O1	·	-1.7	3.6	·	-10.8	·	·	-14.3
CC(=O)c1c(C(C)=O)c(C)n(-c2nc(-c3ccccc3)c(C)s2)c1C	-5.1	-2.0	-7.5	1.6	·	i	11.3	·
O=C(NC1c2ccccc2-c2ccccc21)c1ccco1	2.4	-15.5	-8.2	0.0	-3.5	·	-5.9	·
COc1cc(/C=C/C(=O)OCC(=O)Nc2cc(S(=O)(=O)N3CCOCC3)ccc2Cl)cc(OC)c1OC	-13.5	4.2	-0.2	·	-2.9	·	·	5.5
CCC(NC(=O)NCc1cccnc1)(C(F)(F)F)C(F)(F)F	-6.3	-0.9	3.2	-9.0	-31.1	i	-1.7	·
COC(=O)Cn1c2ccccc2c2nc(C)sc21	-2.3	0.0	4.3	-5.6	-4.1	i	-5.0	-43.0
COc1ccc(/C=N/NC(=O)c2cc(C)on2)c2ccccc12	·	0.2	-2.2	-2.3	-16.5	i	-3.7	·
CCCCN(CCCC)CCCNC(=O)C12CN(Cc3ccccc3)CC1C(c1cccc([N+](=O)[O-])c1)=NO2 (centres undefined)	-26.3	-0.6	-1.1	-6.4	20.9	i	5.5	-16.3
COc1cc2ccc3c(CCN(C)C)cc(OC)c(OC)c3c2cc1OC	-16.1	7.2	-2.0	-6.9	-6.4	i	58.4*	-7.5	eIF4H inh retest=0.2;PABP polyA inh retest=79.1*
Cn1c(=O)cc(NCCc2ccccc2)[nH]c1=O	-12.1	6.3	4.2	-3.5	-10.8	i	5.5	·
Cc1cc(C(=O)COC(=O)c2ccc(Cl)c(S(N)(=O)=O)c2)c(C)n1CC1CCCO1 (centres undefined)	-10.2	7.9	1.0	·	·	i	·	-70.1
N#Cc1ccc(NCCc2ccccn2)c([N+](=O)[O-])c1	-11.6	-2.4	-0.2	0.3	-4.9	i	3.8	?
Cc1cc(NC(=O)CS(=O)(=O)c2cn(Cc3cccc(Br)c3)c3ccccc23)no1	·	-2.9	-20.2	·	0.8	·	·	44.4
CC1=CC2=NC(=O)/C(=C/c3coc4ccccc4c3=O)C(=N)N2O1	3.1	-83.4	0.2	?	0.9	i	?	7.4
CN(C(=O)c1ccc(NC(=O)Cc2ccc(NC(=O)C3CCN(C(=O)c4ccccc4)CC3)cc2)cc1)C1CC1	-15.7	2.7	1.0	·	-14.0	·	·	-17.4
COc1ccc(-c2[nH]ncc2/C=N/NC(=O)c2ccc(Br)cc2)c(OC)c1	-11.1	-0.6	-0.5	-3.3	-23.2	i	1.1	·
COP(C)(=O)c1c(C)nn(-c2ccccc2)c1C (centres undefined)	7.6	2.4	5.1	-8.3	-0.8	i	1.5	·
COc1cccc(NC(=O)CN(C)C(=O)c2cc3c(s2)CCC3)c1	-4.2	·	·	·	·	i	·	-6.2
Cc1ccc(NC(=O)NC2CCN(S(=O)(=O)c3ccc(F)cc3)CC2)cc1	4.0	-1.7	-1.8	-0.5	-21.7	i	-3.9	·
Cc1ccc(N=C2N=C(N)c3ccccc32)cc1C	-4.9	-0.1	0.9	·	-15.2	·	·	-7.4
C=C(Br)Cn1c(CCCC)nc2ccccc21	77.7*	-2.3	-3.1	-5.3	-8.0	i	0.9	·
CCc1ccc(NC(=O)C2CC(=O)N(C(C)C)C2)cc1 (centres undefined)	5.0	0.4	0.7	-8.7	6.0	i	3.4	-79.8
C[C@H](CO)N1C[C@H](C)[C@@H](CN(C)S(=O)(=O)c2cccs2)OCc2cn(nn2)CCCC1=O	·	-2.0	2.1	·	-19.9&-13.9	·	·	-0.4
CCN(CC)c1ccc(NC(=O)CN2CCN(CC(=O)Nc3ccccc3OC)CC2)cc1	·	3.5	-1.1	0.1	-11.4	i	8.1	15.5
COc1cc(OC)cc(C(=O)Oc2ccc(/C=N/Nc3nc4ccccc4s3)cc2OC)c1	4.5	2.0	-8.5	-7.8	-13.3	i	2.4	i
COc1ccc(Nc2ccc([N+](=O)[O-])c3nonc23)c(OC)c1	15.3	-26.8	3.6	-20.4	-15.8	i	-5.1	-0.7
CCOC(=O)C1=C(C)NC2=C(C(=O)CC(c3cccs3)C2)C1c1cccs1 (centres undefined)	-8.5	-8.6	-18.3	6.3	-7.3	·	-8.1	·
CCOC(=O)c1c(NC(=O)C2CC2)sc(C)c1CC	-1.8	-2.1	0.4	0.0	·	i	-6.1	23.7
CC(C)N1CCN(c2ccncc2S(=O)(=O)N2CCCCC2)CC1	·	-2.6	-1.8	·	-8.7	·	·	-2.6
Cc1cccc(OCC(=O)NCC(=O)N/N=C/c2ccc([N+](=O)[O-])cc2)c1	6.2	4.8	3.9	-8.6	·	i	2.1	16.5
C=CCn1c(SCC(=O)Nc2cc(C)on2)nnc1-c1ccccc1F	·	0.6	-1.5	·	-8.5	·	·	i
O=c1[nH]nc(-c2cccs2)c2ccccc12	-5.6	0.7	3.5	-11.3	8.3	i	-0.3	-8.0
COc1ccc(N2CCN(C3CCCCC3NS(=O)(=O)c3ccc(Cl)cc3)CC2)cc1 (centres undefined)	6.1	-6.2	-12.0	-3.9	-13.5	i	1.4	35.0
CC(NC(=O)[C@H](C)NC(=O)C1CC(=O)N(c2ccc3c(c2)OCO3)C1)c1ccccc1 (some centres undefined)	-3.3	-0.6	0.6	2.6	·	i	8.3	13.9
COc1ccc(C2=NOC(C(=O)NCCCN3CCOCC3)C2)cc1 (centres undefined)	-4.8	0.5	1.7	-6.7	-15.7	i	-4.2	-1.1
CS(=O)(=O)N(CC(=O)NCCSCc1ccccc1)c1ccccc1	-40.4	-3.0	-1.2	0.7	-17.7	i	7.6	-2.8
CCOc1ccc(-c2nnn(CC(=O)NCc3ccco3)n2)cc1OCC	-17.6	7.3	8.6	2.3	-7.7	i	-4.4	·
Nc1c(Cl)cc(C2=NCCn3nc4cc([N+](=O)[O-])ccc4c32)cc1Cl	29.6	-5.8	-5.3	·	-13.5	·	·	21.0
CCOc1ncccc1C(=O)Nc1cc(S(=O)(=O)N2CCCCC2)ccc1OC	·	-3.3	2.1	·	-29.6	·	·	8.6
COC(=O)c1nc(NC(C)=O)n[nH]1	-9.5	·	·	-12.1	·	i	3.1	·
NCCCC[C@@H](C(=O)N1CCNCC1)n1cc(CCC(=O)O)nn1	-10.4	1.8	7.3	4.3	-4.6	i	17.0	-18.7
Cc1ccc(Cc2c(-c3cccc(Cl)c3)nc3ccc(C)cn23)cc1	·	-2.2	-1.8	·	-15.5	·	·	61.8*
O=C(c1cc(-c2cccc(O)c2)on1)N1CCCCCC1	2.4	-0.2	-0.9	-5.2	-38.6	i	-4.8	-80.2
CCN(C(=O)CCc1nnc2ccc(N3CCC4(CC3)OCCO4)nn12)c1ccccc1	-9.4	-3.5	-0.4	-3.5	1.9	i	3.5	-3.8
CC(=O)Nc1ccccc1C(=O)N1CCN(c2cccc(C)c2C)CC1	-2.4	-6.6	0.5	17.6	·	i	24.1	-2.1

Screens from PubChem BioAssay.

Not all compounds are listed (hit frequency here may not be typical).
